High-throughput results: PubChem, Johns Hopkins Ion Channel Center
Kir21 inh – inhibitors of mouse Kir2.1 inward-rectifier potassium channel | B-score at 10 µM | AID 1672, 2009 | Inward rectifier potassium channel 2 (Mus musculus), P35561 | 310,000 compounds, 0.85% hits | HEK293-Kir2.1, FluxOR thallium flux fluorescence; hits give low values;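 active means fluorescence ratio B-score at or below minus 3 SD of library scores, with starting-brightness B-score within 2 SD, cut at about -4.2 in these data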;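 further: channel flux triggered by added potassium and thallium sulfate stimulus; B-score of peak minus minimum fluorescence over baseline after thallium stimulus; more negative B-score means stronger Kir2.1 block with less thallium influx; some compounds called inactive have numbers as strong as hits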
Target sequence (P35561 whole entry, looked up): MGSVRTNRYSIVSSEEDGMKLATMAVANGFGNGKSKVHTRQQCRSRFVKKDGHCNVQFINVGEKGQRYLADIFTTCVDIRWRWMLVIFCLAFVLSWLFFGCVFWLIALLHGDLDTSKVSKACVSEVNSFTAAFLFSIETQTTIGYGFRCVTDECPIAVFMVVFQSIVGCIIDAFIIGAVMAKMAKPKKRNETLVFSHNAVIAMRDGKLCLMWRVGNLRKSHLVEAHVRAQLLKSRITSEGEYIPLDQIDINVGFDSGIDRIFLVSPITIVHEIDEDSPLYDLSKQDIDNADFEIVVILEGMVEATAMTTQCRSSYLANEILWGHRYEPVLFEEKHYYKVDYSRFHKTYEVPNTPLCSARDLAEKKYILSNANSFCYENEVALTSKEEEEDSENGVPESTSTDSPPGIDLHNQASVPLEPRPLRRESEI
Active calls of the source: *. An excerpt; most or all hits stand in other tables.

Kir21 inh	molecule
0.03	Cc1nn(-c2ccccc2)c2c1C(O)n1c(nc3ccccc31)S2 (stereo unspecified)
0.91	COc1ccccc1NC(=O)CCC(=O)OCc1ccc(Br)cc1
0.69	Cc1nc2sc(C(c3cccc(F)c3)N3CCC(O)CC3)c(O)n2n1 (stereo unspecified)
0.2	CN(C)C(CNC(=O)c1ccccc1C(F)(F)F)c1ccco1 (stereo unspecified)
-0.62	COC(=O)CCS(=O)(=O)c1cc(Cl)ccc1Cl
1	CC(=O)Nc1ccc(-c2csc(NC(=O)CN3C(=O)NC4(CCCC4)C3=O)n2)cc1
1.9	CC(=O)Nc1cccc(C(=O)NC2CCCc3c2cnn3-c2ccccc2F)c1 (stereo unspecified)
1.1	O=C(c1ccco1)N1CCN(CC(=O)N2c3ccccc3CCc3ccccc32)CC1
3	Brc1ccc(NCc2nnc3n2CCCCC3)cc1
0.74	Cc1cccc(NC(=O)C2CCCN(C(=O)Nc3ccc(F)cc3)C2)c1C (stereo unspecified)
0.17	O=C(NCCN1CCOCC1)c1ccc2c(c1)N(Cc1ccccc1)CCS2
2.8	CC1CCN(C(=O)COc2coc(CN3CCc4ccccc43)cc2=O)CC1
2.3	COc1ccc(-c2cc(C(F)(F)F)n3nc(C(=O)N4CCCCC4)cc3n2)cc1OC
0.1	COc1cc(C(=O)NCC(c2cccnc2)N2CCN(C)CC2)cc(OC)c1OC (stereo unspecified)
1.6	COCCNC(=O)C(=O)Nc1cccc(Br)c1
-0.92	O=C(NC(=S)Nc1ccc(CN2CCOCC2)cc1)c1ccco1
-0.01	CCN(CC)S(=O)(=O)c1cccc(NC(=O)C2SC(=Nc3ccc(C)cc3C)C(C(=O)NCC3CCCO3)=C2N)c1 (stereo unspecified)
0.43	O=C(NCC1CCCO1)c1ccc(COc2ccc(Cl)cc2)cc1 (stereo unspecified)
-0.52	O=C(CSc1nc2ccccc2c(=O)n1Cc1ccco1)N1CCCCCC1
-0.85	O=C(NC1CCN(C(=O)C2CCCCC2)CC1)c1ccccc1
-0.45	CCCCc1nc(NCc2ccccc2)c(C#N)c2c1CCCC2
0.14	COc1cccc(CNC(=O)C2CCN(S(=O)(=O)c3ccc(F)cc3)CC2)c1
0.83	Cc1cccc(N2C(=O)CS/C2=N\NC(=O)c2cccnc2)c1C
0.27	COc1ccc2c(c1OC)C(=O)N1N=C(c3ccc(-c4ccccc4)cc3)CC21 (stereo unspecified)
0.29	Cc1ccccc1NC(=O)C(C#N)Cc1cccnc1 (stereo unspecified)
0.2	CCN1CCN(C(=O)C2CCC(CNS(=O)(=O)c3ccccc3)CC2)CC1 (stereo unspecified)
-2.5	COc1ccc(O)c(C(=O)c2cc(C#N)c(=O)n(Cc3ccccc3)c2)c1
0.14	Cc1cccc(C)c1NC(=O)CN1N=NC2C(=O)N(c3cccc(Cl)c3)C(=O)C21 (stereo unspecified)
1.8	COc1cccc(N2C(=O)C3NN=C(C(=O)CN4C(=O)c5ccccc5C4=O)C3C2=O)c1 (stereo unspecified)
0.43	COc1ccc(Cl)cc1NC(=O)CCc1ccccc1
-2.6	Cc1cc(C(=O)N2CCN(c3cccc(Cl)c3)CC2)c(C)o1
2.1	CC(C)NC(=O)c1ccc2c(=O)n(CC3CCCO3)c(=S)[nH]c2c1 (stereo unspecified)
0.3	Cc1noc(C)c1S(=O)(=O)N1CCC(C(=O)N2CCC(N3CCCCC3)CC2)CC1
0.89	CC(C)C(=O)N1CCN(c2ccc([N+](=O)[O-])cc2Cl)CC1
0.21	O=C(CCS(=O)(=O)c1cccs1)Nc1ccc(C(=O)NCc2ccc(F)cc2)cc1
-0.01	O=C(COC(=O)c1ccc(O)cc1O)c1ccc2c(c1)OCO2
-1.4	CCOc1cc(CNCC2CCCO2)cc(Br)c1OCC(N)=O (stereo unspecified)
1.6	Cc1cccc(Nc2c([N+](=O)[O-])ccc3nonc23)c1C
-0.02	CCOc1ccc(C(=O)N2CCN(c3cccc(Cl)c3)CC2)cc1
-0.57	COc1cccc(N2CCN(C(=O)CCNS(=O)(=O)c3ccc4c(c3)c(=O)n(C)c(=O)n4C)CC2)c1
-2.8	Cc1ccc(NC(=O)CN2C(=O)C3C4C=CC(C4)C3C2=O)cc1 (stereo unspecified)
0.91	COc1ccc(Cl)cc1NC(=O)Nc1cccc([N+](=O)[O-])c1C
-0.65	Cc1noc(/C=C/N(C)C)c1S(=O)(=O)N1CCCC(C(=O)NCc2ccc(F)cc2)C1 (stereo unspecified)
0.05	COc1cc(/C=C/C(=O)OC(C)C(=O)c2ccccc2)cc(OC)c1OC (stereo unspecified)
-1.9	Cc1ccc(C(C)C)c(OCc2nnc(SCC(=O)Nc3ncc(C)s3)n2C)c1
0.24	COc1ccc(-c2cc(C(=O)Nc3cccc(S(=O)(=O)NCc4ccco4)c3)c3ccccc3n2)cc1OC
0.62	O=C(/C=C/c1ccccc1)c1ccoc1
0.78	CCCCC(CC)CNCc1cccn1CCN1CCOCC1 (stereo unspecified)

As entered above:
Value of COc1cc(/C=C/C(=O)OC(C)C(=O)c2ccccc2)cc(OC)c1OC (stereo unspecified) under Kir21 inh: 0.05
Value of O=C(/C=C/c1ccccc1)c1ccoc1 under Kir21 inh: 0.62
Value of COc1ccc(-c2cc(C(=O)Nc3cccc(S(=O)(=O)NCc4ccco4)c3)c3ccccc3n2)cc1OC under Kir21 inh: 0.24
Value of Cc1ccc(NC(=O)CN2C(=O)C3C4C=CC(C4)C3C2=O)cc1 (stereo unspecified) under Kir21 inh: -2.8

More compounds.
Kir21 inh	molecule
-0.01	COC(=O)CN(c1ccc(OC)cc1OC)S(=O)(=O)c1ccccc1[N+](=O)[O-]
1.7	O=c1[nH]nc(-c2cccs2)c2ccccc12
-2.5	O=C(COC(=O)C(O)C(O)C(=O)OCC(=O)c1ccc(C(F)(F)F)cc1)c1ccc(C(F)(F)F)cc1 (stereo unspecified)
0.38	FC(F)(F)c1cc(C(F)(F)F)c2ccc(N3CCN(c4ncccn4)CC3)nc2n1
0.53	COc1ccc(S(=O)(=O)N2CCC(CN3C(=O)c4cccc5cccc(c45)C3=O)CC2)cc1
-0.61	Cc1ccc(C(=O)Nc2nnc(S(=O)(=O)N3CCN(c4ccc(F)cc4)CC3)s2)cc1
1.1	CC1=CC(C)(C)Nc2ccc(OC(=O)CN3C(=O)CCC3=O)cc21
2.1	CCC(CC)C(=O)NCCc1cc2ccc(C)cc2[nH]c1=O
-0.14	O=C(CN1CCCC1)Nc1sc2c(c1C(=O)Nc1ccccc1)CCCC2
1.6	CCCn1nnc(NC(=O)/C=C/c2cc(Br)ccc2OC)n1
-0.51	C#Cc1ccc(C(=O)Nc2cc(C(N)=O)ccc2N2CCOCC2)cc1
0.41	COc1ccccc1CC(=O)Nc1ccc(Cl)cc1C(=O)O
0.71	O=C(NCc1cccs1)C1CC(c2ccc(F)cc2)=NO1 (stereo unspecified)
-1.1	Cc1nc(SCC(=O)Nc2cc(C)on2)c2c3c(sc2n1)CCCC3
0	CC1CC1C(=O)Nc1nc2ccc(Cl)cc2s1 (stereo unspecified)
-0.63	CC(C)CCN1CCNC(=O)C1CC(=O)NCCCN1CCOCC1 (stereo unspecified)
-0.02	O=C(c1ccc2ccccc2c1)N1CCN(c2ccc(C(F)(F)F)cn2)CC1
1	CN1C(=O)C(/C(N)=N/NC(=O)c2ccccc2)C2CC1(C)Oc1ccccc12 (stereo unspecified)
0.05	O=C(O)c1cccc(NC(=O)C2CC(=O)N(Cc3ccccc3)C2)c1 (stereo unspecified)
-0.17	COC(=O)c1c(N)c(C#N)c2n1CCCCC2
-0.09	CCOC(=O)C1(Cc2ccccc2C)CCCN(C(=O)CSC)C1 (stereo unspecified)
0.69	OCc1nc2ccc(Cl)cc2[nH]1
0.34	COC(=O)C1=C(C)NC(=O)C1(NC(=O)c1ccncc1)C(F)(F)F (stereo unspecified)
0.16	COc1ccc2c(c1OC)C(=O)N1N=C(c3ccc(Cl)cc3)CC21 (stereo unspecified)
-0.02	Cn1c(=O)oc2cc(S(=O)(=O)Nc3ccccc3F)ccc21
0.56	Cn1c(N/N=C/c2cccs2)cc(=O)n(C)c1=O
2.9	O=C(Cn1cnc2c(nnn2Cc2ccc(F)cc2)c1=O)N1CCCCC1
-1.2	C/C(=N\NC(=O)CNC(=O)c1cccnc1)c1cccc(O)c1
0	CC1CN(C(=O)Nc2ccc(F)cc2F)CC(C)O1 (stereo unspecified)
-0.01	COc1cccc(-n2c(SCC(=O)N3CCCCC3)nc3c([nH]c4ccccc43)c2=O)c1
0.63	Cc1ccc(CNC(=O)CSc2ccc(-c3cccs3)nn2)cc1
1.7	N/C(=N\OC(=O)c1cc(Br)ccc1Cl)c1ccccn1

Continued; the last 7 above are carried over.
Kir21 inh	molecule
0.56	Cn1c(N/N=C/c2cccs2)cc(=O)n(C)c1=O
2.9	O=C(Cn1cnc2c(nnn2Cc2ccc(F)cc2)c1=O)N1CCCCC1
-1.2	C/C(=N\NC(=O)CNC(=O)c1cccnc1)c1cccc(O)c1
0	CC1CN(C(=O)Nc2ccc(F)cc2F)CC(C)O1 (stereo unspecified)
-0.01	COc1cccc(-n2c(SCC(=O)N3CCCCC3)nc3c([nH]c4ccccc43)c2=O)c1
0.63	Cc1ccc(CNC(=O)CSc2ccc(-c3cccs3)nn2)cc1
1.7	N/C(=N\OC(=O)c1cc(Br)ccc1Cl)c1ccccn1
1.5	CCCCNc1ccc(S(=O)(=O)c2cccc([N+](=O)[O-])c2)cc1[N+](=O)[O-]
1.1	Cn1nc(C(C)(C)C)c([N+](=O)[O-])c1C(N)=O
0.55	CCCn1c(SCc2nc(N)nc(N3CCCCC3)n2)nc2c1c(=O)n(C)c(=O)n2C
-0.25	CSc1nnc(N(CCC#N)CCC#N)s1
-1.8	Cc1ccc(NC(=O)COc2coc(CN3CCc4ccccc43)cc2=O)c(C)c1
-1.2	Cn1c(Cc2cccs2)nnc1SCC(=O)Nc1ccccc1
-1.2	CC(C)(C)NC(=O)c1ccnc(C(C)(C)C)c1
0.81	O=C(Cn1c(=O)n(Cc2ccccc2)c(=O)c2cc(Cl)ccc21)NCC1CCCO1 (stereo unspecified)
-0.1	Cc1cccc(-[n+]2c(C)cc(C)c3c(=O)[nH]c(=O)[nH]c32)c1
2.2	COC(=O)c1ccc(Cl)c(NC(=O)NC2CCCCC2)c1
-0.13	OC(c1ccc(Cl)cc1Cl)C(Cc1cccnc1)n1cncn1 (stereo unspecified)
-1.1	CCOC(=O)C(=CNc1cc(C)nn1-c1ccc(C)cc1)C(=O)OCC
0.44	O=C(N/N=C/c1cccnc1)/C(=C\c1cccs1)NC(=O)c1ccccc1
-0.01	Cc1ccc(C)c(C(=O)CN2C(=O)CCC2=O)c1
-0.26	COc1ccc2cc3c(N)nn(C(=O)c4ccccc4Cl)c3nc2c1
1.7	CSCC[C@H](NC(=O)C1CCCC1)c1nc2ccccc2[nH]1

Compounds from the list above that contain a tert-butyl group (two):
Kir21 inh	molecule
1.1	Cn1nc(C(C)(C)C)c([N+](=O)[O-])c1C(N)=O
-1.2	CC(C)(C)NC(=O)c1ccnc(C(C)(C)C)c1

(cont.)
Kir21 inh	molecule
-0.01	O=C(CSc1ncccn1)Nc1ncc(C(F)(F)F)cc1Cl
1.2	CCc1ccc(C(C(=O)NC(C)(C)CC)N(Cc2ccco2)C(=O)Cn2nnc3ccccc32)cc1 (stereo unspecified)
-0.08	COCCCNC(=O)Cn1c(=O)n(CCCCCC(=O)Nc2ccccc2)c(=O)c2sccc21
0.69	O=C(/C=C/c1ccc(O)cc1)c1ccc(NC2=C(N3CCCCC3)C(=O)c3ccccc3C2=O)cc1
0.02	COc1ccc(N(CC(=O)N/N=C/c2ccccc2OC)S(=O)(=O)c2ccccc2)cc1
1.2	Cc1nc2ccc([N+](=O)[O-])cc2s1
0.18	COc1ccccc1N1C(=O)C(=O)N(C)C1=O
-0.29	S=C(c1ccc(N2CCOCC2)cc1)N1CCOCC1
0.05	CCCCCCNC(=O)CC(NS(=O)(=O)c1ccc(NC(C)=O)cc1)C(C)C (stereo unspecified)
-2.3	Cc1ccccc1OCCN1C(=O)NC2(CCCc3ccccc32)C1=O (stereo unspecified)
1.1	Cc1ccccc1N=C1NC(=O)/C(=C/c2cccn2-c2cccc(C(=O)O)c2)S1
-1.2	Cc1ccc2cc(CCNC(=O)CCCc3ccccc3)c(=O)[nH]c2c1C
1.4	Cc1ccc(S(=O)(=O)NCCC(=O)NCCN2CCCCCC2)cc1
0.66	COc1ccc(N2C(=O)CC(N3CCC(O)(c4cccc(C(F)(F)F)c4)CC3)C2=O)cc1 (stereo unspecified)
1.2	CCOC(=O)CNC(=O)C1Cc2ccccc2CN1S(=O)(=O)c1cccs1 (stereo unspecified)
0.5	Cc1nn(-c2ccccc2)c(Cl)c1/C=C(\CC(=O)O)c1nc2ccccc2s1
-0.75	CC(C)C[C@H](NC(=O)C1CCC(CNC(=O)[C@@H]2CCCN2C(=O)OC(C)(C)C)CC1)C(=O)O (stereo partly specified)
-0.27	COc1ccc(OC)c(NC(=O)COC(=O)c2ccc(-n3cnnn3)cc2)c1
1.7	O=C(CN1CCN(c2ccc(C(F)(F)F)cn2)CC1)Nc1ccc2c(c1)OCO2
0.1	O=C(C1CCN(c2ncnc3c2nc2n3CCCCC2)CC1)N1CCN(c2cccc(Cl)c2)CC1
-0.33	Cc1cc(C)cc(Nc2c(F)c(F)c(F)c(F)c2C(=O)O)c1
-1.6	Cc1cc(-n2c(SCC(=O)NCCC3=CCCCC3)nc3n[nH]c(C)c3c2=N)ccc1Cl
0.27	COc1ccc(CC(=O)N/N=C/c2cc(Br)cs2)cc1OC
-0.49	C=CCNC(=O)C12CCC(C)(C(=O)[C@H]1Br)C2(C)C (stereo partly specified)
1.3	CCCN(CCC)C(=O)Cn1c2ccccc2c2nc(=O)cc(C)n21
